2A Renilla – lowers the Renilla signal of an FMDV 2A StopGo reporter; HEK cells with a luciferase reporter of 2A StopGo recoding; Potency, µM (titrated, usually from 57.5 µM), inactives show top-dose signal change, negative = less light; actives 0.32% (n = 120,000); AID 1745857; active means well fitted falling curve with a large enough effect; inconclusive means small, poorly fitted or top-dose-only effect; inactive means no such curve, though single readings can be large or run the other way; note: nearly all actives have a fitted effect of over 55% in size; overnight with compound
2A firefly – lowers the firefly signal of an FMDV 2A StopGo reporter; HEK cells with a luciferase reporter of 2A StopGo recoding; Potency, µM (titrated, usually from 57.5 µM), for the others: top-dose signal change, negative = less light; actives 0.23% (n = 120,000); AID 1745856; active = well fitted falling curve with a large enough effect; inconclusive = small, poorly fitted or top-dose-only effect; inactive = no such curve, though single readings can be large or run the other way; note: nearly all actives have a fitted effect of over 60% in size; overnight with compound
Starred values were filed as active, the others as inactive; ? = inconclusive; & = joins results of further samples; [ ] = dose if it differs, or a comment. % is set by controls: 0 for no effect and ±100 for the full control effect; potency is the fitted concentration of half-maximal effect. Only part of the results is shown; rates above refer to the full screens.

SMILES	2A Renilla	2A firefly
Cc1cc(COc2ccc(C(=O)c3ccccc3)cc2)on1	-3%	120%[activator]
COc1ccc(Nc2nc3ccccc3nc2NS(=O)(=O)c2ccc(F)cc2)cc1	13%	?
C=CCn1c(Oc2cccc(C)c2)nc2c1c(=O)n(C)c(=O)n2C	4%	21%
CCc1noc(CN(C)CC2CN(CC)c3ccccc3O2)n1 (configuration not stated)	15%	31%
CCCNS(=O)(=O)c1cc(-c2nnc3c4ccccc4c(C)nn23)ccc1OC	230%[activator]	1%
CCOc1ccc(NC(=O)c2oc3ccccc3c2NC(=O)C2CCCCC2)cc1	-3%	-5%
Brc1ccc(-c2ccn[nH]2)cc1	9%	188%[activator]
Cn1c(-c2cccc(OCc3ccccc3)c2)nc2c1c(=O)[nH]c(=O)n2Cc1ccccc1	0%	6%
O=C(NC1CC1)c1cc2occc2n1Cc1ccccc1F	5%	12%
CCc1ccc(NC(=O)CCCn2cnc3c2c(=O)n(C)c(=O)n3C)cc1	0%	0%
O=C(Nc1ccc(NC(=O)c2cccs2)cc1)c1cccc(Br)c1	7%	3%
COc1ccc(CSc2ccc(S(=O)(=O)N3CCOCC3)cn2)cc1F	-20%	-26%
CCOC(=O)c1cnc(SCc2nc(-c3cccc(Cl)c3)oc2C)nc1N	3%	-4%
O=C(Cc1cccc2ccccc12)NCCc1cccc2cccnc12	9%	-2%
COc1ccc(COCC(O)CNC(=O)C2CC2)cc1 (configuration not stated)	-13%	-7%
CCN1CCC(N(Cc2cccc(OC)c2)C(=O)Nc2ccc(C)cc2Cl)CC1	-14%	-17%
Cc1ccc(Cn2c(SCc3ccc(C(=O)N4CCCCCC4)cc3)nc3ccncc32)cc1	?	?
Cc1cccc(-c2ocnc2C(=O)Nc2ccc(C)c(C)c2)c1	-7%	13%
COc1cc(OC)cc(C(=O)Nc2ccc3c(c2)OCCO3)c1	15%	336%[activator]
Cc1cc(O)c(C(c2cccc(Cl)c2)N2CCN(c3ccccc3)CC2)c(=O)n1Cc1ccco1 (configuration not stated)	1%	0%
CN(Cc1cc(Br)cc(Br)c1N)C1CCCCC1	-1%	-12%
CCOC(=O)c1c(C)c(-c2ccccc2)n(CC(=O)Nc2cccc(SC)c2)c1C	-6%	6%
Cc1nc2c(-c3ccccc3)c(C)[nH]n2c(=O)c1Cc1ccc(C(C)C)cc1	7%	25%
CCOC(=O)c1c(NC(=O)c2ccoc2C)sc2c1CCC(C(C)(C)C)C2 (configuration not stated)	-7%	0%
CCCCc1nn2c(=O)cc(COC(=O)c3ccccc3NC(=O)c3ccccc3OC)nc2s1	-5%	-18%
CCC(C)NC(=O)Cn1ccc2cc(S(=O)(=O)N3CCCCC3)ccc21 (configuration not stated)	24%	-18%
CN(C)S(=O)(=O)c1cccc(NC(=O)Cc2cc(Cl)c3c(c2)OCCCO3)c1	-38%	?
Cc1nnc(NC(=O)c2cccn(Cc3ccccc3F)c2=O)s1	-3%	28%
CC1CCCCN1c1nnc(NC(=O)Nc2ccccc2F)s1 (configuration not stated)	-14%	100%[activator]
CC1=C(C(=O)NCc2ccccc2F)C2(CCCCC2)OC1=O	-7%	-2%
CCN(CC)CC1CCN(C(=O)c2cc(F)cc3nc(C)c(C)nc23)CC1	-10%	-12%
CN(C)CCNC(=O)c1ccc2c(c1)N(Cc1c(F)cccc1Cl)C(=O)c1ccccc1S2	37%[activator]	-6%
Cc1cc(C)c(S(=O)(=O)Nc2cc(Cl)c3oc4c(c3c2)C(=O)CCC4)cc1C	-8%	11%
NC1[C@H]2CN(c3nc4c(cc3F)c(=O)c(C(=O)O)cn4-c3ccc(F)cc3F)C[C@@H]12 (some centres not stated)	141%[activator]	4%[11.5 µM]
Cc1ccc(N(CC(=O)Nc2cc(C)ccc2C)S(=O)(=O)c2c(C)noc2C)cc1	3%	-25%
CCCc1nc2sc3c(N4CCCCC4)ncnc3c2c2c1CCCC2	-10%	-22%
COc1cc(C)cc2oc(=O)c(CC(=O)NCCCO)c(C)c12	10%	11%
COc1ccc(OC)c(NC(=O)c2ccc(-n3cccn3)cc2)c1	-8%	35%[activator]
CCOC(=O)c1ccc(NC(=O)c2c(NCc3cc(OC)ccc3OC)sc3c2CCC3)cc1	0%	5%
COCCn1c(-c2ccccc2)c(C)n2c3c(=O)n(C)c(=O)n(C)c3nc12	-2%	-14%
COc1ccc(N2CCN(C(=O)CN(C)S(=O)(=O)c3cccs3)CC2)cc1	1%	9%
CN(C(=O)COC(=O)/C=C/c1cccc2cccnc12)c1ccccc1	24%	0%
N#Cc1nc(-c2cccs2)oc1N1CCN(C(=O)c2ccccc2)CC1	-2%	3%
CC(Sc1ccc2c(c1)OCCCO2)C(=O)c1ccc(F)cc1 (configuration not stated)	33%[activator]	0%
O=C(Nc1ccc(F)cc1F)C1CC2CCC1C2 (configuration not stated)	-1%	0%
COc1cccc(-c2csc(/C(C#N)=C/c3ccccc3C(F)(F)F)n2)c1	11%	127%[activator]
Cc1ccc(S(=O)(=O)c2cn(Cc3ccccc3F)c3cc4c(cc3c2=O)OCO4)cc1	155%[activator]	-5%
O=C(Nc1ccon1)c1sc2ccccc2c1Cl	1%	198%[activator]
O=C(NCC1COc2ccccc2O1)c1ccccn1 (configuration not stated)	2%	155%[activator]
COc1cc(NC(=O)c2ccc(N3C(=O)C(C)(C)CS3(=O)=O)cc2)cc(OC)c1OC	11%	9%
Cc1cc(C)n(-c2ccccc2)n1	-9%	7%
CCN1CCN(C(=O)C2=CC(c3ccccc3OC)=NS(=O)(=O)N2C)CC1	25%	-3%
CCOC(=O)CC(NC(=O)c1cc2cc(Cl)ccc2oc1=O)c1ccc(C)cc1 (configuration not stated)	-11%&-7%	-10%&7%
CN(c1ccc([N+](=O)[O-])c2cnccc12)C1CCCCC1	?	?
O=C(NCc1ccccc1F)C(=O)Nc1cccc(O)c1	14%	108%[activator]
COc1cc(OC)cc(C(=O)NCCc2csc(-c3ccc(C(F)(F)F)cc3)n2)c1	-6%	-13%
COc1ccc2c(C)c(CCC(=O)N3CCC(OCc4ccccc4)CC3)c(=O)oc2c1	-5%	-4%
O=C(O)CCNS(=O)(=O)c1cccc(C(F)(F)F)c1	11%	6%
Cc1oc(-c2nc(C#N)c(NCC3CCCO3)o2)cc1S(=O)(=O)N(C)C (configuration not stated)	-8%	-8%
Cc1cccn2c(=O)c(C(=O)NCCCN3CCCCC3C)c(O)nc12 (configuration not stated)	-17%	-11%

(continued)
SMILES	2A Renilla	2A firefly
CCc1cc(Br)ccc1NC(=O)Nc1cccc(C(C)=O)c1	16%	10%
CC(=O)c1ccc(NC(=O)c2cn(C)c(=O)c3ccccc23)cc1	8%	28%
CC(C)C1CCC(C)C(C(O)c2ccc(-c3ccccc3)cc2)C1=O (configuration not stated)	25%	8%
CC1CCC(NC(=O)CN2CCC(c3nc4ccccc4o3)CC2)CC1 (configuration not stated)	-16%	-19%
CCOc1ccc(OCCOC(=O)Cc2coc3cc4c(cc23)CCC4)cc1	-4%	7%
Cc1cc(C)n2nc(SC(C)C(=O)Nc3c(Cl)cc(Cl)cc3Cl)nc2n1 (configuration not stated)	-1%	1%
CCCc1nc(SC)ncc1C(=O)NCc1ccc(C)cc1	16%	10%
CCNC(=O)NC(=O)C(C)OC(=O)c1nc(-c2ccccc2)oc1C (configuration not stated)	3%	9%
CCOC(=O)c1c(NC(=O)CS(=O)(=O)c2ccc(C)cc2)sc2c1CCCCC2	-14%	-19%
COC(=O)c1ccc(NC(=O)CN2CCN(S(=O)(=O)c3ccc(Br)cc3)CC2)cc1	14%	4%
COC(=O)c1ccccc1NC(=O)N1CCC(N2CCN(Cc3ccc(F)cc3)C(=O)C2=O)CC1	3%	-22%
COc1ccc(CNC(=O)C(C(C)C)N2Cc3ccccc3C2=O)cc1 (configuration not stated)	-5%	-13%
CCCCOc1ccc(C2c3c(oc4ccc(C)cc4c3=O)C(=O)N2CCCN(C)C)cc1OCC (configuration not stated)	-15%	-3%
CC1CCN(S(=O)(=O)c2ccc(NC(=O)Cn3cnc4c3c(=O)n(C)c(=O)n4C)cc2)CC1	-4%	-5%
CCCCn1nc(C(=O)Nc2ncc(Cc3ccc(F)cc3)s2)ccc1=O	?	?

By substructure, the entries above with bromine
SMILES	2A Renilla	2A firefly
Brc1ccc(-c2ccn[nH]2)cc1	9%	188%[activator]
O=C(Nc1ccc(NC(=O)c2cccs2)cc1)c1cccc(Br)c1	7%	3%
CN(Cc1cc(Br)cc(Br)c1N)C1CCCCC1	-1%	-12%
CCc1cc(Br)ccc1NC(=O)Nc1cccc(C(C)=O)c1	16%	10%
COC(=O)c1ccc(NC(=O)CN2CCN(S(=O)(=O)c3ccc(Br)cc3)CC2)cc1	14%	4%

The listing picks up, repeating the six entries before the break.
SMILES	2A Renilla	2A firefly
COC(=O)c1ccc(NC(=O)CN2CCN(S(=O)(=O)c3ccc(Br)cc3)CC2)cc1	14%	4%
COC(=O)c1ccccc1NC(=O)N1CCC(N2CCN(Cc3ccc(F)cc3)C(=O)C2=O)CC1	3%	-22%
COc1ccc(CNC(=O)C(C(C)C)N2Cc3ccccc3C2=O)cc1 (configuration not stated)	-5%	-13%
CCCCOc1ccc(C2c3c(oc4ccc(C)cc4c3=O)C(=O)N2CCCN(C)C)cc1OCC (configuration not stated)	-15%	-3%
CC1CCN(S(=O)(=O)c2ccc(NC(=O)Cn3cnc4c3c(=O)n(C)c(=O)n4C)cc2)CC1	-4%	-5%
CCCCn1nc(C(=O)Nc2ncc(Cc3ccc(F)cc3)s2)ccc1=O	?	?
COc1nc(Oc2ccc(=O)n(-c3ccccc3)n2)nc(N(C)C)n1	7%	-4%
O=C(NCC(=O)N1CCSCC1)C1CCCN(S(=O)(=O)c2ccc(Cl)cc2)C1 (configuration not stated)	0%	-5%
CC(C)(C)CC(C)(C)NC(=O)c1ccc(C#N)cc1	3%	0%
CCN(CC)S(=O)(=O)c1ccc2c(c1)N(CC(=O)NCC(C)c1ccccc1)C(=O)CO2 (configuration not stated)	2%	1%
CC(C)CNc1oc(-c2ccc(S(=O)(=O)N3CCCCCC3)cc2)nc1C#N	52%[activator]	3%
CCOc1cc(/C=C2/NC(=O)NC2=O)cc(Cl)c1OCc1ccc(C(=O)O)cc1	-1%	1%
CC(=O)NC1CCN(C(=O)C2CCN(c3oc(-c4ccco4)nc3C#N)CC2)CC1	-13%	-8%
COC(=O)c1ccc(/C=C/c2cccc(C#N)c2)nc1	17%	209%[activator]
CCNC(=O)NC(=O)CSc1nnc(-c2c[nH]c3ccccc23)o1	20%	17%
Cc1cnc(NC(=O)CCOc2cccc(Br)c2)s1	4%	0%
CCn1cc(C(=O)N2CCN(c3cc(C)ccc3C)CC2)c(=O)c2cc(S(=O)(=O)N3CCOCC3)ccc21	2%	11%
COc1ccc(Nc2c(-c3ccsc3)nc3nc(C)cc(C)n23)cc1	22%	13%
Cc1cccc(NC(=O)Cn2cc(S(=O)(=O)c3ccc(F)cc3)c(=O)c3cc4c(cc32)OCO4)c1	14%	3%
Cc1ccc(CCNc2ncnc3onc(-c4ccc(Cl)cc4)c23)cc1	-5%	30%[activator]
Cc1cc(C)n2nc(C(=O)OC(C(=O)c3c[nH]c4ccccc34)c3ccccc3)nc2n1 (configuration not stated)	-8%	22%
CCOC(=O)c1c(C)[nH]c(CCC(=O)NCc2ccc(OC)cc2OC)c1C	15%	-12%
CCOC(=O)C1=C(C)NC(=O)NC1c1cn(-c2ccccc2)nc1-c1ccc(OCC)cc1 (configuration not stated)	-4%	-4%
Cc1cccc(-c2nc(C#N)c(N3CCN(C(=O)c4ccc(F)cc4)CC3)o2)c1	9%	12%
CCCCc1ccc(C(=O)Cn2nnc(-c3cccc(F)c3)n2)cc1	6%	9%
Cc1ccc(CN2CCCn3nc(C(=O)NCc4cc(C)ccc4C)cc3C2=O)cc1	10%	?
COc1ccc2cc(CNc3ccccc3)c(=O)n(CC(=O)Nc3ccc(C(C)=O)cc3)c2c1	2%	8%
O=C(/C=C/c1ccc(F)cc1)NCCc1c[nH]c2ccccc12	-10%	34%[activator]
CCc1cccc(-n2nnc(-c3nsc(NC(=O)c4cccc(OC)c4)n3)c2C)c1	-18%	-9%
Cc1oc(-c2ccccc2)nc1C12CC3CC(CC(C3)C1)C2	36%[activator]	39%[activator]
COc1ccc(S(=O)(=O)NCCc2csc3nc(-c4ccc(OC)c(OC)c4)nn23)cc1C	255%[activator]	-6%
CC1CCCCN1CCCOC(=O)c1ccc(OC2CCCCC2)cc1 (configuration not stated)	?	?
Cc1c(Cl)cccc1NC(=O)C12CC3CC(CC(C3)C1)C2	10%	23%
COc1ccc(-c2nc(CN3CCCC3c3ccsc3)co2)cc1 (configuration not stated)	9%	24%
CC(C)=CCS(=O)(=O)Cc1cccc2ccccc12	3%	0%
Cn1c(=O)c2sccc2n2c(CCC(=O)NCc3ccc(F)cc3)nnc12	-9%	-19%
Cc1cc(C(=O)CSc2nnc(CN3CCCC3)n2-c2ccccc2)c(C)n1C	-21%	-19%
Cc1oc2cc(OC(C)C(=O)Nc3ccc(N4CCOCC4)cc3)ccc2c(=O)c1-c1ccccc1 (configuration not stated)	-4%	8%
COc1ccc(CC(=O)Nc2nc3c(s2)CC(C(C)(C)C)CC3)cc1 (configuration not stated)	3%	30%[activator]
O=[N+]([O-])c1ccc(CON=C2CCC3(CC2)OCCO3)cc1	4%	133%[activator]
Cc1noc(-c2ccc(N3CCCCC3)c([N+](=O)[O-])c2)n1	6%	217%[activator]
CC(C)(C)NCC(O)c1cc(Cl)c(N)c(C(F)(F)F)c1 (configuration not stated)	-9%	-5%[11.5 µM]

Look-ups from the entries so far:
For 2A Renilla, Cc1oc2cc(OC(C)C(=O)Nc3ccc(N4CCOCC4)cc3)ccc2c(=O)c1-c1ccccc1 (configuration not stated) has -4%
For 2A firefly, COc1ccc(CC(=O)Nc2nc3c(s2)CC(C(C)(C)C)CC3)cc1 (configuration not stated) has 30%[activator]
